Compound activity as filed in PubChem.
RE007 growth inh: qHTS Assay for Inhibitors of the HIV-1 protein Vpr; S. pombe RE007 Vpr strain, BacTiter-Glo ATP luminescence, 24 h; control for the full effect not named in the record; Potency, µM (series often up to 92.2 µM), without a hit: at the top dose activity change, negative = less growth; AID 651644, 2012; 360,000 tested, 0.21% active; active = well fitted falling curve with a large enough effect; inconclusive = small, poorly fitted or top-dose-only effect; inactive = no such curve, though single readings can be large or run the other way;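 note: % is set by controls: 0 for no effect and ±100 for the full control effect; nearly all actives have a fitted effect of over 50% in size; the assay follows cell death caused by Vpr and the record does not say whether a fall means rescue or toxicity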
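Fission yeast strain RE007, carrying one chromosomally integrated HIV-1 vpr copy, was seeded at OD 0.01 in PMG+AL medium with 23 nL pinned compound. After 24 h at 30 °C and 99% humidity, viability was read by BacTiter-Glo luminescence.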
Marburg entry inh: qHTS for inhibitors of binding or entry into cells for Marburg Virus. Marburg virus pseudotyped entry inhibition, cell reporter; control for the full effect not named in the record; about a third of the inactives were read at about 46 µM. Potency, µM (highest dose often 37.8 µM), inactives show top-dose activity change, negative = inhibition, usual class: inhibitors. 300,000 tested, 1.8% active; active = well fitted inhibition curve with a large enough effect; inconclusive = small, poorly fitted or top-dose-only effect, or effect the other way; inactive = flat fitted curve, though single readings scatter; tested in HEK293 cells; about a fifth of its hits are not listed in these tables; note: % is set by controls: 0 for no effect and ±100 for the full control effect; luciferase read-out
SARS PLP yeast: qHTS of Yeast-based Assay for SARS-CoV PLP; S. cerevisiae expressing SARS-CoV PLpro, growth rescue; control for the full effect not named in the record; AID 485353, 2010; Potency, µM (titrated, usually from 32.9 µM), for inactives: at the top dose activity, positive = growth rescue; 330,000 tested, 0.19% active; active means well fitted rising curve with a large enough effect; inconclusive means small, poorly fitted or top-dose-only effect; inactive means no such curve, though single readings can be large or run the other way; note: 0% is about no effect; nearly all actives have a fitted effect of over 55% in size; growth read by luminescence after 48 h
NS1 function inh: qHTS Assay for Inhibitors of Influenza NS1 Protein Function. S. cerevisiae slowed by influenza A NS1, growth recovery by OD600. Potency, µM (titrated, usually from 46.1 µM), inactives show at the highest dose activity, positive = more growth. 270,000 tested, 0.4% active; active means well fitted rising curve with a large enough effect; inconclusive means small, poorly fitted or top-dose-only effect; inactive means no such curve, though single readings can be large or run the other way; note: nearly all actives have a fitted effect of over 50% in size
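Growth recovery, yeast-based: influenza A NS1 expressed in S. cerevisiae causes slow growth, and suppressors are detected by OD600. The parent strain without NS1 is used as positive control.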
Cruzain inh noDet: qHTS Assay for Promiscuous and Specific Inhibitors of Cruzain (without detergent). AID 1476, 2009. 200,000 tested, 2.3% active. Potency, µM, without a hit: max response, negative = inhibition, hits mostly inhibitors. Cruzipain (Trypanosoma cruzi), P25779. purified cruzain, Z-FR-AMC fluorescence, no detergent;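 note: plate controls were enzyme without inhibitor for no effect and buffer without enzyme for full effect; nearly all actives have a fitted effect of over 40% in size; top concentration of the series not given in the record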
Target sequence (P25779 123-467 limits assumed): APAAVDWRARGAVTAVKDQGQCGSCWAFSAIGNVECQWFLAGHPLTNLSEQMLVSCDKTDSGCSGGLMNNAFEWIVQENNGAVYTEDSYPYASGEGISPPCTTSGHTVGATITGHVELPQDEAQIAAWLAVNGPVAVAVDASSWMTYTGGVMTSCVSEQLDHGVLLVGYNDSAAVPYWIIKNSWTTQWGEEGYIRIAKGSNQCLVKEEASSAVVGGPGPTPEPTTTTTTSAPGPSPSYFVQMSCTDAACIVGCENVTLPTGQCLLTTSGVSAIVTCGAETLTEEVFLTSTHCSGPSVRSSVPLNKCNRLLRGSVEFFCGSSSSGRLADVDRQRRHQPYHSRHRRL
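Detergent-free condition (0.00005% Triton X-100) in acetate buffer pH 5.5 with DTT. 1.5 nM enzyme and compound were pre-mixed 15 min, then 2 uM Z-FR-AMC substrate added; reaction progress from fluorescence change between first and third reads (60 s).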
Cruzain inh Det: qHTS Assay for Promiscuous and Specific Inhibitors of Cruzain (with detergent); 200,000 tested, 0.43% active; Cruzipain (Trypanosoma cruzi), P25779; purified cruzain, Z-FR-AMC fluorescence, 0.01% Triton; Potency, µM, for inactives: max response, negative = inhibition, most hits filed as inhibitors; AID 1478, 2009;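 note: plate controls were neutral wells for no effect and buffer without enzyme for full effect; nearly all actives have a fitted effect of over 40% in size; top concentration of the series not given in the record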
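Detergent-containing arm of a paired screen for aggregation-based inhibition: 0.01% Triton X-100 present. Cruzain at 1.5 nM cleaved 2 uM Z-FR-AMC at pH 5.5 with 5 mM DTT; AMC fluorescence gain over 60 s measured activity.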
Lassa entry inh: qHTS for Inhibitors of binding or entry into cells for Lassa Virus | Lassa virus pseudotype entry inhibition, cell reporter; control for the full effect not named in the record | Potency, µM (doses to about 37.9 µM), inactives show top-dose activity change, negative = inhibition, actives largely listed as inhibitors | 300,000 tested, 1.2% active | AID 540256, 2011; active means well fitted inhibition curve with a large enough effect; inconclusive means small, poorly fitted or top-dose-only effect, or effect the other way; inactive means flat fitted curve, though single readings scatter; tested in HEK293 cells; note: % is set by controls: 0 for no effect and ±100 for the full control effect; nearly all actives have a fitted effect of over 50% in size; luciferase read-out
StopGo reporter: High Throughput Screening for Foot and Mouth Disease Virus Antivirals. human cells with a luciferase reporter of 2A StopGo recoding; control for the full effect not named in the record. Potency, µM (series often up to 57.9 µM), inactives show top-dose signal change, negative = less light. AID 1159524, 2015. 410,000 tested, 1.2% active; active = well fitted falling curve with a large enough effect; inconclusive = small, poorly fitted or top-dose-only effect; inactive = no such curve, though single readings can be large or run the other way; tested in HEK293T cells; note: % is set by controls: 0 for no effect and ±100 for the full control effect; nearly all actives have a fitted effect of over 45% in size; luciferase light after 4 h
Starred values were filed as active, the others as inactive; ? = inconclusive; / = not tested or not shown; & = joins results of further samples; [ ] = remark or other dose. Unless noted, calls come from the whole dose curve; as a rule, active = well fitted curve in the direction sought with a large enough effect; inconclusive = small, poorly fitted or top-dose-only effect, or another doubt; inactive = no such curve, though single readings can be large; an effect the other way counts as inactive or inconclusive. Potency is the fitted concentration of half-maximal effect.

SMILES	RE007 growth inh	Marburg entry inh	SARS PLP yeast	NS1 function inh	Cruzain inh noDet	Cruzain inh Det	Lassa entry inh	StopGo reporter
CN1CC(c2ccccc2)C2(COc3ccccc3C2=O)C12C(=O)Nc1ccccc12 (stereo not given)	17.2%	-21.3%	-29.0%	21.2%	0.3%	-2.0%	?	31.1%[activator]
CCc1nc2sc3c(c2c(=O)n1NC(=O)CCl)CCCC3	-7.5%	-25.5%	10µM*	-6.2%	5.1%	-2.5%	1.8%	?
O=C(NNC(=O)c1cccnc1)Nc1ccc([N+](=O)[O-])cc1	-20.2%	13.7%	13.1%	-1.5%	0.0%	-13.6%	?	-6.3%
COc1ccc(-c2c(C)nn3c(N4CCC(C(=O)NCCN(C)C)CC4)cc(C)nc23)cc1OC	3.0%	20.6µM*	0.7%	0.1%	4.5%	-2.7%	1.0%	19.8%
CS(=O)(=O)N(CC(=O)Nc1ccc2c(c1)OCO2)Cc1ccccc1	-3.1%	15.9%	1.3%	-3.9%	7.7%	-2.3%	11.1%	/
O=C(CN1CCN(C(=O)c2cccc(F)c2)CC1)NC1CCCCC1	-1.3%	-0.5%[46.1 µM]	0.6%	-2.0%	0.3%	2.2%	4.5%	-7.8%
COc1cc(/C=C(\C#N)C(=O)NC(C)C)ccc1OCc1ccc(C(=O)O)cc1	5.8%	4.1%[46.1 µM]	-0.5%	4.8%	/	/	-7.4%	18.6%
CCCCN(C(=O)c1oc2ccc(OCC)cc2c1C)c1c(N)n(CCCC)c(=O)[nH]c1=O	4.5%	?	4.5%	/	/	/	12.5%	-2.6%
O=C1NC(=S)N/C1=C/c1ccc(-c2c(Br)cc([N+](=O)[O-])cc2Br)o1	/	-6.5%	-1.8%	22.4%	20µM*	-11.6%	/	/
Cc1ccc(-c2cc(C(F)F)n3ncc(C(=O)Nc4c(C)nn(Cc5ccccc5Cl)c4C)c3n2)cc1	-5.0%	-5.7%	1.3%	21.7%	-0.9%	-2.8%	1.8%	?
C=CC[N+]1(CC(=O)NCc2ccc(NC(C)=O)cc2)CCOCC1	3.2%	13.9%[46.1 µM]	-3.2%	-1.8%	/	/	3.9%[46.1 µM]	-9.5%
Cc1ccccc1CSc1ncnc2ccccc12	1.3%	-30.0%[46.1 µM]	-0.6%	/	/	/	0.7%	0.1%
CC(C)(CN1CCN(c2ccccc2)CC1)NS(=O)(=O)c1ccccc1	5.3%	?	-0.3%	3.7%	/	/	-9.6%	-27.4%
O=C(CCCN=C1NS(=O)(=O)c2ccccc21)OCC(=O)c1ccccc1Cl	-7.5%	-0.7%[46.1 µM]	2.2%	/	/	/	-1.7%	-3.7%
COc1ccc(N2C(=O)C(CC(=O)Nc3ccccc3)N(CCC3=CCCCC3)C2=O)cc1 (stereo not given)	/	-5.9%[46.1 µM]	/	/	-2.3%	-7.0%	0.8%[46.1 µM]	-6.2%
Cc1cc(C)cc(N2CN=c3s/c(=C\c4ccco4)c(=O)n3C2)c1	-14.4%	?	-0.6%	1.0%	-8.1%	-9.3%	0.8%	-9.3%
COc1ccc(C2CC(c3cccs3)=NN2C(=O)CSc2nc(=O)n3ccccc3n2)cc1 (stereo not given)	18.9%	?	1.5%	/	/	/	9.7%	8.8%
CCCCC1(Cc2cccc([N+](=O)[O-])c2)C(=O)N(c2ccccc2)N(c2ccccc2)C1=O	8.7%	15.8µM*	-12.0%	-5.9%	-2.1%	-8.4%	?	?
CS/C(=N\S(=O)(=O)c1ccc(N)cc1)NS(=O)(=O)c1cccs1	9.4%	-1.3%	1.7%	9.6%	0.3%	-1.9%	10.3%	0.8%
CCCN1CCCc2cc(CN)ccc21	18.0%	-29.2%&-6.8%	4.2%	-1.8%	-12.9%	-5.1%	?	?
CC1CC(C(F)(F)C(F)(F)F)n2nc(C(=O)O)cc2N1 (stereo not given)	26.8%	8.5%	-5.1%	10.5%	5.8%	-0.1%	8.7%	-8.6%
Cc1cc(C)n2nc(SCc3c(F)cccc3Cl)nc2n1	5.2%	/	-3.5%	-45.5%	/	/	/	21.4%
O=C(CSC1=Nc2ccccc2N=C(c2ccc(F)cc2)C1)Nc1ccccc1	/	/	/	/	4.5%	-7.5%	11.1%[46.1 µM]	-22.0%
Cc1ccc(SC/C(O)=C(\C#N)c2nc3ccccc3s2)cc1	-6.8%	-3.7%	-3.5%	-24.9%	25.1µM*	1.1%	-3.4%	5.3%
Cc1ccc(-n2c(-c3nn(C)c(C)c3Cl)n[nH]c2=S)cc1	4.1%	13.5%	23.5%	-0.2%	-5.9%	6.5%	-12.0%	4.4%
O=C(O)c1ccc(NC(=O)c2ccccc2NC(=O)c2ccccc2Cl)cc1	1.7%	-0.9%	-0.2%	1.8%	/	/	19.9%	4.5%
COc1ccccc1Nc1nc(N)nc(-c2oc3ccccc3c2C)n1	1.1%[3.69 µM]	?	5.4%	5.6%	-4.0%	3.1%	19.2%	-3.8%
O=C1CN(c2nc(-c3cccs3)nc3sc4c(c23)CCCC4)CCN1	-13.4%	?	-1.5%	-1.1%	/	/	?	43.6%[activator]
COC(=O)c1c(C)[nH]c(C=O)c1-c1ccccc1	2.8%	11.5%[46.1 µM]	-1.1%	-6.4%	/	/	-28.8%	46.8%[activator]
CCS(=O)(=O)N1CCC(C(=O)NCc2ccc3c(c2)OCO3)CC1	6.8%	-1.8%	1.1%	/	/	/	6.6%	3.6%
COc1ccc2[nH]c(C)c(CCN3C(=O)C4CC=CCC4C3=O)c2c1 (stereo not given)	7.6%	/	-0.1%	5.9%	1.8%	-1.8%	/	-25.7%
O=C(CCN1C(=O)c2ccccc2C1=O)N1CCN(Cc2ccccc2)CC1	6.5%	7.8%	-44.3%	-4.7%	-9.3%	0.3%	-8.9%	/
O=C(O)CCC1OC(=O)C(O)=C1c1ccccc1 (stereo not given)	75.8%	/	2.4%	3.1%	/	/	/	-19.1%
Cc1nnc(NC(=O)c2c(-c3ccccc3Cl)noc2C)s1	14.6%	13.5%[46.1 µM]	-0.3%	3.0%	/	/	0.2%	-6.6%
Nc1c(Cl)cc(C(=O)NC2CC2)cc1Cl	30.8%	11.2µM*	/	/	/	/	0.0%[46.1 µM]	-0.6%
O=C(Cc1ccccc1)Nc1cccc(NC(=O)c2cccs2)c1	10.0%	?	-0.3%	-3.0%	/	/	2.7%	71.4%[activator]
COc1ccc(-c2noc(CN3CCCC(OCc4ccccn4)C3)n2)cc1 (stereo not given)	-9.5%	0.0%	-0.7%	-8.0%	/	/	/	?
COc1ccc(C(=O)NNC(=O)C2CCCO2)cc1 (stereo not given)	5.5%	/	-0.7%	-1.0%	/	/	/	10.3%
OCCCNc1ncnc2scc(-c3ccc(Cl)cc3)c12	4.7%	?	-1.6%	-5.6%	/	/	-16.1%	?
Cc1ccc(S(=O)(=O)Cc2ccc(C(=O)NCCc3ccc(Cl)cc3)o2)cc1	/	?	/	/	-5.1%	-11.2%	?	?

3 entries from above, in CSV form:
SMILES,RE007 growth inh,Marburg entry inh,SARS PLP yeast,NS1 function inh,Cruzain inh noDet,Cruzain inh Det,Lassa entry inh,StopGo reporter
O=C(Cc1ccccc1)Nc1cccc(NC(=O)c2cccs2)c1,10.0%,?,-0.3%,-3.0%,/,/,2.7%,71.4%[activator]
COc1ccc(-c2noc(CN3CCCC(OCc4ccccn4)C3)n2)cc1 (stereo not given),-9.5%,0.0%,-0.7%,-8.0%,/,/,/,?
COc1ccc(C(=O)NNC(=O)C2CCCO2)cc1 (stereo not given),5.5%,/,-0.7%,-1.0%,/,/,/,10.3%

Carrying on:
SMILES	RE007 growth inh	Marburg entry inh	SARS PLP yeast	NS1 function inh	Cruzain inh noDet	Cruzain inh Det	Lassa entry inh	StopGo reporter
C[C@H](NC(=O)c1nc[nH]c1C(=O)N1CCN(C(=O)OC(C)(C)C)CC1)C(=O)OCc1ccccc1	6.8%	/	-2.4%	-3.8%	/	/	/	-17.2%
O=C(COC(=O)CNC(=O)c1ccc(Br)cc1)Nc1nnc(-c2ccccc2)o1	0.3%	?	0.9%	/	/	/	8.2%	9.6%
CCc1cccc(NC(=O)Cn2c(=O)n(CC3CCC(C(=O)NC)CC3)c(=O)c3sccc32)c1 (stereo not given)	/	/	/	/	?	-1.8%	?	-8.8%
O=C(NCCN1CCOCC1)c1ccc2c(c1)N(Cc1cccc(F)c1)C(=O)c1ccccc1S2	-3.1%	?	2.7%	/	/	/	18.4%[46.1 µM]	-14.3%
O=C(CSc1ccsc1[N+](=O)[O-])N1CCN(c2ccccn2)CC1	5.8%	?	-0.7%	/	/	/	-3.3%	-5.9%
COc1ccccc1C1CCN(Cc2ccc(Cl)c(Cl)c2)CC1	3.2%	?	-0.8%	3.8%	/	/	?	?
CC1CCCCC1NC(=O)NC(=O)COC(=O)c1ccc(OC(F)F)cc1 (stereo not given)	-8.8%	?	0.2%	/	/	/	?	-8.4%
CS(=O)(=O)c1ccc(-c2nnc(NC(=O)C3=COCCO3)o2)cc1	-9.5%	-0.4%[46.1 µM]	/	/	/	/	0.2%	18.2%
CC1(C)CC(NC(=O)COc2ccc3c4c(c(=O)oc3c2)CCCC4)CC(C)(C)N1	-0.4%	/	2.5%	13.8%	/	/	/	8.5%
CCOC(=O)C/C(C)=N\Nc1ccc([N+](=O)[O-])cc1[N+](=O)[O-]	-26.7%	2.0%[46.1 µM]	-0.8%	/	/	/	7.1%	-23.3%
COc1ccc(CN2CCN(C(=O)c3cccc4ccccc34)CC2)c(OC)c1OC	1.8%	/	-1.4%	-14.0%	/	/	/	2.4%
CC(C(=O)O)N1CCCCC1 (stereo not given)	-11.2%	/	0.7%	?	/	/	/	-12.1%
Cc1ccc(OCC(=O)N/N=C/c2cn(C)c3ccccc23)cc1	3.0%	/	-0.7%	-37.9%	/	/	/	-7.8%
